Source: PubChem BioAssay (National Center for Advancing Translational Sciences (NCATS))
gsp ag = qHTS for Agonist of gsp, the Etiologic Mutation Responsible for Fibrous Dysplasia/McCune-Albright Syndrome: qHTS; gsp mutant cells, cAMP HTRF, 30 min; control for the full effect not named in the record; Potency, µM (series often up to 76.9 µM), without a hit: top-dose activation (cAMP increase), most hits filed as activators; 340,000 tested, 0.13% active; active = well fitted activation curve with a large enough effect; inconclusive = small, poorly fitted or top-dose-only effect, or another doubt; inactive = no such curve, though single readings can be large or run the other way; cell line not stated here;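 also: phosphodiesterase inhibitor Ro 20-1724 added with compounds to block cAMP breakdown; potency is read from the fitted curve at half-maximal effect; nearly all actives have a fitted effect of over 60% in size; about a fifth of the inactives were tested at one dose only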
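Cells stably selected in G418 were plated at 2000/well, grown 16-24 hr, then given compounds in DMSO with the PDE inhibitor […] (300 uM solution added) for 30 min at 37C; cAMP was read by HTRF.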
ClpP mod = qHTS Assay for Activators of ClpP. Potency, µM (top dose mostly 57.5 µM), for the others: at the highest dose activity change, negative = active. purified B. subtilis ClpP, FRET peptide cleavage, 20 min. 340,000 tested, 1.9% active. ATP-dependent Clp protease proteolytic subunit (Bacillus subtilis (strain 168)), P80244; active = well fitted falling curve with a large enough effect; inconclusive = small, poorly fitted or top-dose-only effect; inactive = no such curve, though single readings can be large or run the other way; also: potency is read from the fitted curve at half-maximal effect; the source files actives as falling curves though it sought activators and does not explain the sign; nearly all actives have a fitted effect of over 65% in size; many hits overshoot -100%
Target sequence (P80244 whole entry, looked up): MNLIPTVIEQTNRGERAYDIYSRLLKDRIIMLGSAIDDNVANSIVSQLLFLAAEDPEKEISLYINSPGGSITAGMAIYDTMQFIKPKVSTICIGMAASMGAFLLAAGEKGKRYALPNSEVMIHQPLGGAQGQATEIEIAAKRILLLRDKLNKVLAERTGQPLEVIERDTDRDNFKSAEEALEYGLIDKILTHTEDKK
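Purified B. subtilis ClpP, 10 microg/mL final in Tris/HCl pH8 with KCl, BSA, glycerol and Tween-20, cleaved an Abz/nitrotyrosine-quenched decapeptide. Fluorescence (ex 320, em 430) was read at 0 and 20 min at room temperature. Delta was normalized to 5.8 microM ADEP and DMSO/no-enzyme controls.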
Sfp PPTase inh = qHTS Assay for Inhibitors of Bacillus subtilis Sfp phosphopantetheinyl transferase (PPTase); Biochemical Sfp PPTase activity, qHTS; Potency, µM, for inactives: max response, negative = inhibition, usual class: inhibitors; 310,000 tested, 3.5% active; AID 1490, 2009; active = well fitted inhibition curve with a large enough effect; inconclusive = small, poorly fitted or top-dose-only effect, or another doubt; inactive = no such curve, though single readings can be large or run the other way;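 also: the enzyme is Sfp with the accession as filed and its product quenches rhodamine fluorescence; potency is read from the fitted curve at half-maximal effect; 0% = enzyme reaction without inhibitor and -100% = no enzyme wells; top concentration of the series not given in the record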
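Compounds were incubated with enzyme (final 15 nM) for 15 min at room temperature before substrate addition started the reaction. Fluorescence at 525 nm excitation, 598 nm emission was recorded immediately and after 30 minutes.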
gsp antagonist = qHTS for Antagonists of gsp, the Etiologic Mutation Responsible for Fibrous Dysplasia/McCune-Albright Syndrome: qHTS | gsp-mutant cells, cAMP HTRF, 30 min; control for the full effect not named in the record | Potency, µM (doses to about 76.9 µM), for the others: at the highest dose activity change, negative = inhibition, usual class: inhibitors | 340,000 tested, 0.4% active | AID 624288, 2012; active = falling curve of any shape with a large fitted effect; inconclusive = falling curve, mostly with a smaller effect; inactive = flat or rising curve; cell line not stated here;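 also: intracellular cAMP measured with PDE inhibitor Ro 20-1724 present during compound exposure; potency is read from the fitted curve at half-maximal effect; % is scaled to controls: 0 for no effect and ±100 for the full control effect; nearly all actives have a fitted effect of over 65% in size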
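Measurement of cellular cAMP by homogeneous time-resolved fluorescence following a 30 min compound exposure at 37C. The PDE inhibitor […] was present throughout; the assay buffer was DPBS with 0.05% BSA and 0.005% Tween 20.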
D2 potentiator = Beta-Arrestin HTS for Positive Allosteric Modulators of the Human D2 Dopamine Receptor: Potentiators. D(2) dopamine receptor (Homo sapiens), P14416. DiscoveRx D2 beta-arrestin cells, luminescence, 90 min; 100% = 57 uM dopamine signal. potentiation, % (test concentration not listed). 360,000 tested, 0.23% active. AID 624464, 2012; active = potentiation of 50% or more; inconclusive = 30% to 50%; inactive = 30% or less;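 also: compound concentration not given in the record; tested on top of an EC20 dose of dopamine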
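PathHunter D2 cells, attached overnight at 37 deg C, received compound in DMSO plus dopamine at EC20 (50 nM final) for 90 min at 37 deg C. Beta-arrestin recruitment was read as luminescence after 1 h with detection reagent at ambient temperature.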
TRPV1 potentiator = HTS Assay for Compounds that Act as Potentiators of the Vanilloid Receptor 1; 320,000 tested, 0.02% active; TRPV1-expressing cells, Fluo-8 calcium influx, capsaicin EC20 potentiation; host cell line not named in the record; control for the full effect not named in the record; potentiation, % at 8.33 µM; active means potentiation above 80%; inconclusive means 30% to 80%; inactive means below 30%; also: 0% is about no effect
Target sequence (Q8NER1 whole entry, looked up): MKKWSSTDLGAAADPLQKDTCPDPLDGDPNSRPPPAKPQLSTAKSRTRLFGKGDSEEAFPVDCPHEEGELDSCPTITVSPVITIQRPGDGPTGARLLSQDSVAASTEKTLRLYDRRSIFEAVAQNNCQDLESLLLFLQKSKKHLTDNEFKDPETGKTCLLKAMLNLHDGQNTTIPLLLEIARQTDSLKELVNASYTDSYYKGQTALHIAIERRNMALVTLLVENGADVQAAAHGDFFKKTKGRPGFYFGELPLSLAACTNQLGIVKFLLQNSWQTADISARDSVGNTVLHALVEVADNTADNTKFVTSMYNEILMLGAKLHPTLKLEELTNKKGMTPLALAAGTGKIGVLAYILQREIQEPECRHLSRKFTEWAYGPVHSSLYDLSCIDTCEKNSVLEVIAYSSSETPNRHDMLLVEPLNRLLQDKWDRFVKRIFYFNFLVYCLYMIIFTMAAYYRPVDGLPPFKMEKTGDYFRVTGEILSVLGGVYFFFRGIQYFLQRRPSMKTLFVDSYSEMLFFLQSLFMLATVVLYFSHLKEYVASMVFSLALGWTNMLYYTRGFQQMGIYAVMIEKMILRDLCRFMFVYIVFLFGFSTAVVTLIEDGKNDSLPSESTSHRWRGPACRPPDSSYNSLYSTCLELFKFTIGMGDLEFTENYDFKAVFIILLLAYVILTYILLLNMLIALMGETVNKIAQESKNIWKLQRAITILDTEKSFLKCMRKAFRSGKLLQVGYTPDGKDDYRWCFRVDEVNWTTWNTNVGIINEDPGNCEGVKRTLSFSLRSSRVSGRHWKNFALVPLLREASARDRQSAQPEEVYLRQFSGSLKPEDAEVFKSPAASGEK
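Cells expressing TRPV1 were dye-loaded with Fluo-8 and read kinetically: 10 s baseline, 3 min after compound (agonist portion), then 2 min after EC20 capsaicin (allosteric enhancer portion). Calcium-bound dye fluorescence at 480/520 nm.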
Menin-MLL FL inh = qHTS Assay for Inhibitors Targeting the Menin-MLL Interaction in MLL Related Leukemias: Competition With Fluorescein Labeled MLL-derived Peptide | Fluorescence polarization, fluorescein-MLL peptide displacement from menin | FP activity change, % at 61.4 µM | 290,000 tested, under 10 active; inconclusive = falling polarisation curve, or a change in total fluorescence; inactive = total fluorescence flat and polarisation flat or rising; no compound was filed as active; the % refers to the polarisation; negative = inhibition;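 also: % of control where 0% means no effect; inhibitors lower the polarisation; unlabelled MLL peptide was the positive control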
* = called active by the depositor; u = inconclusive; x = no result given; & = joins results of further samples; [ ] = dose if it differs, or a comment.

SMILES	gsp ag	ClpP mod	Sfp PPTase inh	gsp antagonist	D2 potentiator	TRPV1 potentiator	Menin-MLL FL inh
CC1(C)CC(=O)C2=C(C1)N(Cc1ccco1)C(=O)NC2(C(F)(F)F)C(F)(F)F	-8%	-1.1%	3%	31%[activator]	5	8	-0.1
COc1cccc(-n2c(SCC(N)=O)nc3c([nH]c4ccccc43)c2=O)c1	-9%[15.4 µM]	-4.5%	20µM*	10%	14	5	2.1
CC(C)C[C@@H](CN)NC(=O)c1nc[nH]c1C(=O)N[C@@H](Cc1ccccc1)C(=O)CNC[C@H](C)NC(=O)c1nc[nH]c1C(=O)N[C@@H](CC(=O)O)C(=O)O	x	0.5%	x	0%	-5	x	x
COC(=O)c1nc2n(n1)C(c1cc(OC)ccc1OC)C(C(=O)OC1CCCCC1)=C(C)N2 (stereo unspecified)	-19%	1.1%	-7%	-33%	-12	1	0.1
CCOC(=O)N1CCN(C(=O)c2ccc(NS(=O)(=O)c3ccc4[nH]c(=O)[nH]c4c3)cc2)CC1	0%	-0.5%	x	10%	1	15	x
O=C(NCC(c1cccnc1)N1CCN(c2ccc(F)cc2)CC1)c1ccc2c(c1)OCO2 (stereo unspecified)	-1%	-1.6%	-1%	8%	-18	-3	-1.8
COc1ccccc1CCNC(=O)CN1C(=O)c2ccccc2S1(=O)=O	-3%[15.4 µM]	x	x	2%	-3	16	x
CCS(=O)(=O)c1ccc2oc(Nc3ccc(OC)cc3)nc2c1	3%[15.4 µM]	x	6%	2%	4	-1	-2.5
Cc1cc2ccccn2c1C(=O)c1nc(NCc2ccco2)ncc1Cl	u	x	15%	12%	0	2	-2.1
CC(OC(=O)c1cccc(S(=O)(=O)N2CCOCC2)c1)C(=O)NC1CCCCC1C (stereo unspecified)	-8%	1.0%	x	5%	-2	-6	x
CCOc1c(Cl)cc(C(=O)Nc2ccccc2-c2ccccc2)cc1Cl	-41%[inhibitor]	-17%	4%	7%	-4	10	0.0
COC(=O)c1ccc(-c2ncc(-c3cccc4ccccc34)o2)cc1	4%	75%	u	-5%	-9	-19	3.3
Cc1ccc(CNC(=O)C2CCN(C(=O)Nc3ccccc3)CC2)cc1	4%	x	12%	12%	-2	-10	8.8
COC(=O)C1CCN(c2ccc([N+](=O)[O-])cc2)CC1	-81%[inhibitor]	x	20%	-3%	-4	-12	3.9
COc1ccc2c(c1)CC/C(=C/c1ccncc1)C2=O	-10%[15.4 µM]	-3.0%	7%	-3%	-16	-16	3.0
N#Cc1nc(-c2cccc(Cl)c2)oc1N1CCC(C(N)=O)CC1	-1%[15.4 µM]	-3.5%	2%	-5%	-7	-22	-0.6
Cc1cccc(Nc2nc3c(c(=O)n(C)c(=O)n3C)n2CC(O)CO)c1 (stereo unspecified)	-6%	-3.5%	4%	6%	-2	x	15
CCOc1ccc(-n2cc(-c3ccc(OC)c(OC)c3)[nH]c2=S)cc1	29%	x	u	-16%	1	11	2.7
CCOc1ccc(/C=N/n2c(C)nc3ccccc3c2=O)cc1	u	0.8%	-1%	u	-11	-13	9.2
CCCOc1ccc(N2C(=O)CC(SCCN)C2=O)cc1 (stereo unspecified)	-17%	-0.2%	u	12%	-3	-13	-1.2
O=C(Nc1nccs1)c1ccc(S(=O)(=O)NCc2cccs2)cc1	-24%	-5.7%	19%	-11%	-25	0	0.4
N#Cc1ccccc1OCC(=O)OCC(=O)c1ccc[nH]1	-54%[inhibitor]	-0.6%	x	-6%	-2	22	x
C=CCn1c(NCc2ccccc2O)nc2ccccc21	-15%[15.4 µM]	14%	10%	-10%	-7	8	-5.3
C/C(=N\Nc1ccc([N+](=O)[O-])cc1[N+](=O)[O-])c1ccc(-n2nncc2C(C)(C)C)cc1	2%	1.5%	-10%	-24%	-10	8	2.4
O=C(Nc1ncccc1O)c1ccc2c(c1)OCO2	6%[15.4 µM]	x	x	-2%	1	-6	x
CN(c1ccc(OCc2ccc([N+](=O)[O-])cc2)cc1)S(=O)(=O)c1ccccc1	-14%	x	6%	-3%	-5	22	-0.6
CCC1(C)Cc2ccccc2C(=O)N1 (stereo unspecified)	9%	-0.1%	9%	8%	-15	-2	3.0
Cc1nn(C)cc1CNC(=O)CCC(=O)O	21%	1.1%	-3%	6%	-16	x	-0.3
CS(=O)c1ccccc1COC(=O)Nc1ccccc1 (stereo unspecified)	-11%[15.4 µM]	x	5%	5%	-1	-9	-1.3
Cc1ccc(Cn2c(C)c3cnn(CC(=O)NCc4ccccn4)c(=O)c3c2C)cc1	23%	-4.4%	4%	2%	-2	14	-2.1
O=S(=O)(Nc1ccncc1)c1ccc(Cl)c(Cl)c1	-17%[15.4 µM]	-0.6%	27%	4%	-5	8	0.5
CCOC(=O)c1ccc(NS(=O)(=O)c2ccc3c(c2)CCCN3C(C)=O)cc1	u	-1.9%	15%	u	-13	-6	0.2
O=C(CC1(O)C(=O)N(Cc2ccccc2)c2ccccc21)c1ccc2c(c1)OCO2 (stereo unspecified)	13%	-0.7%	-1%	9%	-6	7	-0.3
Cn1nc(CC(=O)NCc2cccc3ccccc23)c2ccccc2c1=O	0%	0.6%	7%	-10%	11	2	1.9
Clc1ccccc1N=Nc1ccccn1	-2%	2.1%	x	3%	-15	x	x
CCOC(=O)N1CCN(C(=O)C(C)SCc2ccccc2)CC1 (stereo unspecified)	-17%	0.9%	8%	2%	3	x	1.1
c1ccc2c(Oc3ccc4c(c3)OCO4)nncc2c1	u	-2.2%	14%	2%	-22	5	-0.2
CN(C)Cc1c(O)ccc2occ(C(=O)c3ccc(F)cc3)c12	u	x	1%	9%	4	2	2.0
CN(C(=O)C=Cc1ccco1)c1ccccc1	-27%	-2.8%	x	-1%	-16	x	x
N#Cc1ccc(C(=O)Nc2cccc3ncccc23)c(F)c1	8%[15.4 µM]	-2.9%	-2%	-2%	-4	-20	1.2

Two compounds from above, showing only ClpP mod, TRPV1 potentiator and gsp antagonist.
SMILES | ClpP mod | TRPV1 potentiator | gsp antagonist
c1ccc2c(Oc3ccc4c(c3)OCO4)nncc2c1 | -2.2% | 5 | 2%
CN(C)Cc1c(O)ccc2occ(C(=O)c3ccc(F)cc3)c12 | x | 2 | 9%

Continued:
SMILES	gsp ag	ClpP mod	Sfp PPTase inh	gsp antagonist	D2 potentiator	TRPV1 potentiator	Menin-MLL FL inh
COc1ccc(NC(=O)Nc2cccc(C)n2)c(OC)c1	u	-2.6%&0.3%	8%	7%	-8	-14	-3.8
CCCc1cc(=O)n2[nH]c(NCc3c(F)cccc3Cl)nc2n1	-6%	-4.9%&-8.4%	13%	-7%	-18	13	7.6
COCCn1c(-c2cc(OC)c(OC)c(OC)c2)nc2oc3cc(OC)ccc3c(=O)c2c1=O	u	-2.9%	13%	-4%	5	-11	4.5
COc1ccc(CCC(=O)Nc2ccc(N3CCOCC3)c(S(=O)(=O)Nc3ccc(OC)cc3)c2)cc1	-5%	-1.6%	x	3%	-9	x	x
COc1cccc(CNC(=O)CCc2nnc3ccc(NCCCN4CCCC4=O)nn23)c1	u	-26%	3%	15%	-8	4	5.1
COc1cccc(OC)c1C(=O)n1nc(C)cc1C	-2%	-2.3%	0%	-5%	6	-26	0.3
CC(C)CC(=O)NC(=S)N1CCCCCC1	0%	0.2%	-8%	15%	1	u	0.2
CCCCOC(=O)C1=C(C)NC2(O)c3ccccc3C(=O)C12O (stereo unspecified)	-21%	-3.0%	-23%	12%	-18	4	2.5
CCc1ccc(OC(C)C(=O)N(Cc2ccco2)C2CCS(=O)(=O)C2)cc1 (stereo unspecified)	u	0.8%	20%	6%	0	0	0.8
CC(C)C[C@H](NC(=O)c1nc[nH]c1C(=O)NC1CCN(C(=O)OC(C)(C)C)CC1)C(=O)OC(C)(C)C	u	0.9%	38%[activator]	-24%	-3	5	0.5

Next section; it opens with the two that closed the last part.
SMILES	gsp ag	ClpP mod	Sfp PPTase inh	gsp antagonist	D2 potentiator	TRPV1 potentiator	Menin-MLL FL inh
CCc1ccc(OC(C)C(=O)N(Cc2ccco2)C2CCS(=O)(=O)C2)cc1 (stereo unspecified)	u	0.8%	20%	6%	0	0	0.8
CC(C)C[C@H](NC(=O)c1nc[nH]c1C(=O)NC1CCN(C(=O)OC(C)(C)C)CC1)C(=O)OC(C)(C)C	u	0.9%	38%[activator]	-24%	-3	5	0.5
C=CC1C(OC2OC(CO)C(O)C(O)C2O)OC=C(C(=O)OC)C1CC1CC(=O)CC(CC(=O)CCc2ccc(O)cc2)O1 (stereo unspecified)	-17%	0.0%	0%	5%	-3	-3	1.7
COC(=O)C1CCC(C)(C(=O)Nc2ccccc2)C1(C)C (stereo unspecified)	8%	-0.2%	10%	-6%	-19	-19	0.5
CCOC(=O)C(Cc1ccccc1)NC(=O)Cn1nnc(-c2ccc(SC)cc2)n1 (stereo unspecified)	4%	2.1%	-15%	-21%	8	5	1.7
Oc1ccc(-c2nc3c4c(ncn3n2)-c2ccccc2CC42CCCC2)cc1	-8%	-20%	32%	-2%	-9	3	7.7
CC(=O)NCC1CCN(C(=O)C2CCC(=O)N(CCc3cccc(F)c3)C2)CC1 (stereo unspecified)	5%	1.6%	10%	-7%	23	-5	x
CCN(CC)c1ccc(NC2=C(Cl)C(=O)c3ccccc3C2=O)cc1	-11%	-0.5%	u	-5%	60*	-22	x
Cc1oc2c(Cl)c(Cl)c(O)c(CN(C)C)c2c1C(=O)c1ccc(Cl)cc1	8%	-0.4%	-28%	1%	-3	5	1.7
